Compound activity deposited in PubChem by several laboratories.
AF4-AF9 inh – blocks AF4 peptide binding to human AF9. 350,000 compounds, 0.47% hits. P42568. inhibition, % at 10 µM. AID 651704. AlphaScreen, biotin-AF4 peptide binding to FLAG-AF9;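 active = every replicate reaching a set inhibition limit, whatever the replicate mean, cut at about 25% in these data; inconclusive = mean inhibition reaches that limit but some replicates miss it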;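 note: 0% = plate neutral control median and 100% = total signal loss; the record names both 10 and 1 µM as test concentration; the first replicate is given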
Target sequence (P42568 whole entry, looked up): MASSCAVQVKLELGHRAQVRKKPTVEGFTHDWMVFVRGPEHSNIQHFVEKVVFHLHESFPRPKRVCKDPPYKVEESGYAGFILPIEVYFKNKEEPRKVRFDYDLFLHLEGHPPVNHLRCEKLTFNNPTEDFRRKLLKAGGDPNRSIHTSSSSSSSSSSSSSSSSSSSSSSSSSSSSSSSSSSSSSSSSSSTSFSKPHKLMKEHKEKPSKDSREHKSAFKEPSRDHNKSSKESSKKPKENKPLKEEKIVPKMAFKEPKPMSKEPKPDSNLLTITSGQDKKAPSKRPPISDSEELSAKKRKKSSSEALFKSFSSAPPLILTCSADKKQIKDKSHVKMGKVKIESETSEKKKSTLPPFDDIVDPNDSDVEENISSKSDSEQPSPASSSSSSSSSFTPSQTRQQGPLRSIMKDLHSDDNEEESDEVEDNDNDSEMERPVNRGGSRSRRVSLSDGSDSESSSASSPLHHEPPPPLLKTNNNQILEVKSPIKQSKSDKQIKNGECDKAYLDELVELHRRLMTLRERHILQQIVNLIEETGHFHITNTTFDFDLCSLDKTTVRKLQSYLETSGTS
HNF4A DNA FP – change in binding of human HNF4 alpha to DNA; P41235; HNF4a-FITC DNA binding, fluorescence polarization, 1 h; activity change, % at 10 µM; 360,000 compounds, 0.3% hits; AID 1224865; in the data active = activity change above about 30%, passing the limit was not always enough;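 note: controls were the assay level and a saturating level of protein; the project sought stronger binding though the title names inhibitors; some compounds called inactive have numbers as strong as hits; positive values seem to mean higher polarization but the record does not say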
Target sequence (P41235 whole entry, looked up): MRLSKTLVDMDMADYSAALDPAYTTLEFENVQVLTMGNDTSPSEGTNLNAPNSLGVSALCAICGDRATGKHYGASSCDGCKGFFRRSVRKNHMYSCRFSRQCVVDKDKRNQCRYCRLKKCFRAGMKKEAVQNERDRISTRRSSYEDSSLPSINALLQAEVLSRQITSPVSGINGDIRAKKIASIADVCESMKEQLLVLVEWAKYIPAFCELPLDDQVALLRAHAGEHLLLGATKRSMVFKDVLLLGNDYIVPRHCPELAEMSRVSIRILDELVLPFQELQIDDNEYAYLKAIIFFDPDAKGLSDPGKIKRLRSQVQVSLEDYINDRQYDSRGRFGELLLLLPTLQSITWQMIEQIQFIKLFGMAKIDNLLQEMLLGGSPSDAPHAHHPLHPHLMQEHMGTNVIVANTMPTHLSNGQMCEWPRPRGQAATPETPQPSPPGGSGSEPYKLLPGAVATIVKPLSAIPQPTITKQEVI
RanGTP-Imp inh – inhibitors of RanGTP-importin-beta interaction, primary screen, biochemical, FRET, CFP-Ran, YFP-importin-beta, homogeneous | cell-free CFP-Ran/YFP-importin-beta FRET ratio | inhibition, % (test concentration not listed) | 300,000 compounds, 1.1% hits;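 active = most replicates above 15%; inconclusive = exactly half above 15%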;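 note: 0% = DMSO wells and 100% = Ran loaded with GDP instead of GTP; wells of about 40 µL received 100 nL stock; the first replicate is given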
Ecoli growth – E. coli growth inhibition; 330,000 compounds, 0.21% hits; OD600 absorbance (concentration not given with the values); Escherichia coli growth, OD600, 23 h; hits give low values;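 active = OD600 absorbance below the run mean of sample wells minus 3.6 SD, in any replicate, cut at about 0.56 in these data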;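 note: stock transfer was 300 nL into about 60 µL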
UCH37 inh – blocks the human deubiquitinase UCH37; 330,000 compounds, 0.33% hits; Q9Y5K5; purified proteasome/UCH37, Ub-AMC cleavage fluorescence; inhibition, % (test concentration not listed);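 active = mean of two replicates above 20%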;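 note: 0% = compound-free wells with enzyme and 100% = wells lacking proteasome; stock transfer was 100 nL into about 20 µL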
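system = Proteasome-associated human UCH37 deubiquitinase | amount = 0.15 nM proteasome as dispensed | medium = pH 7.4 Tris-HCl (50 mM) with ovalbumin, ATP-MgCl2, DTT | incubation = 30 min preincubation with enzyme, 25 min cleavage at room temperature | detection = AMC fluorescence 355/460 nm | read-out basis = percent inhibition | controls = no-proteasome and no-compound wells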
Vif TR-FRET – inhibitors of Vif binding to APOBEC3G peptide, primary screen, biochemical, TR-FRET, GST-Vif 1-94, biotin-A3G peptide, dose response retest (AID 1117319). TR-FRET GST-Vif / biotin-A3G peptide binding; higher % means a stronger effect; test concentration not given here; strong numbers were not always called active. one-dose inhibition, %; IC50 in µM for titrated hits. 260,000 compounds, 0.57% hits;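 active = above the screen mean plus three standard deviations and confirmed in dose response; inconclusive = results disagree or hit not tested in dose response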;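 note: Vif residues 1-94 fused to GST binding biotinylated APOBEC3G peptide 110-148; 0% = full assay without inhibitor and 100% = GST in place of GST-Vif; retest series ran down from 100 µM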
FGF22 binding – shifts melting point of recombinant human FGF22; 340,000 compounds, 1.5% hits; recombinant FGF22 thermal shift, SYPRO orange fluorescence; percent of sucrose octasulfate shift, DMSO zero; calls only at 9.99 µM; AID 651658; Q9HCT0;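 active = melting point raised past a set limit in the mean and every replicate; inconclusive = no clear call; three in four hits are not shown here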
Starred values were filed as active, the others as inactive; i = inactive; u = inconclusive; x = not tested or not shown.

SMILES	AF4-AF9 inh	HNF4A DNA FP	RanGTP-Imp inh	Ecoli growth	UCH37 inh	Vif TR-FRET	FGF22 binding
COc1ccc(C2c3[nH]c4ccccc4c3CCN2Cc2ccoc2)c(F)c1 (stereo unspecified)	9.9	-1.4	-6.1	0.707	-8.0	1.2%	i
COc1ccc(CCN2CC(C(=O)N(C)CC(=O)Nc3ccc(Cl)c(C(F)(F)F)c3)CC2=O)cc1OC (stereo unspecified)	-0.9	-3.6	x	0.68	0.9	3.1%	i
CC(=O)Nc1ccc(NC(=O)CSc2nccn2Cc2ccc(Cl)cc2)cc1	0.0	1.5	2.0	0.73	1.0	-5.2%	i
COc1ccccc1NS(=O)(=O)c1ccc(OC)c(OC)c1	x	4.5	2.1	0.742	4.1	-0.5%	x
Cc1ccc(C(=O)N(CC(=O)NC2CCCC2)Cc2cccs2)s1	x	1.2	2.6	0.683	0.2	-0.5%	x
CCc1ccc(CN2CCC(n3nccc3NC(=O)c3ccccc3C)CC2)cc1	1.8	2.0	4.1	0.638	1.6	x	i
Cc1cc2oc(C(=O)Nc3ccc(S(=O)(=O)Nc4nccs4)cc3)cc(=O)c2cc1Cl	x	-7.3	-2.9	0.686	3.8	x	x
Cc1cccc([C@@H]2[C@@H]3C(=O)N(Cc4ccccc4)C(=O)[C@@H]3[C@]3(CC(C)C)C(=O)N(c4cccc(F)c4)C(=O)N23)c1	0.7	3.9	2.4	x	-1.0	x	i
COC(=O)COc1ccc2c(-c3ccc(OC)cc3)cc(=O)oc2c1	x	2.7	-4.1	0.731	-2.5	-1.4%	x
CS(=O)(=O)c1ccccc1-c1nnc(NC(=O)c2ccc(S(=O)(=O)N3CCCC3)cc2)o1	4.8	-3.9	-1.7	0.714	3.5	-1.4%	i
Cc1cc(=O)n2nc(N3CCCC3C(=O)NCc3ccccn3)sc2n1 (stereo unspecified)	x	-3.1	0.4	0.67	1.1	-4.6%	x
C=CCCC(=O)N1C[C@H]2CON(C)[C@H]2C[C@H]1c1cccc(Nc2ccccc2)c1	1.4	2.2	x	x	x	-1.7%	i
O=C1ON=C(c2ccccc2)/C1=C/c1cccnc1	-1.2	2.4	x	0.696	0.5	x	i
Cc1cccc(N(C)S(=O)(=O)c2nnc(NC(=O)c3ccco3)s2)c1	-7.4	-4.3	175.8*	0.72	7.8	x	i
Cc1ccccc1C(C(=O)NCc1ccco1)N(CC1CCCO1)C(=O)Cn1nnc2ccccc21 (stereo unspecified)	x	0.0	-1.9	0.737	1.3	-2.4%	x

Taken from above:
UCH37 inh, Cc1cc2oc(C(=O)Nc3ccc(S(=O)(=O)Nc4nccs4)cc3)cc(=O)c2cc1Cl → 3.8
Ecoli growth, O=C1ON=C(c2ccccc2)/C1=C/c1cccnc1 → 0.696

Additional compounds:
SMILES	AF4-AF9 inh	HNF4A DNA FP	RanGTP-Imp inh	Ecoli growth	UCH37 inh	Vif TR-FRET	FGF22 binding
C=CCn1c(=O)c2c(nc3n2CCCN3CCc2ccc(OC)c(OC)c2)n(C)c1=O	1.5	2.6	-2.0	0.687	0.3	-3.6%	i
CCC1(c2ccccc2)NC(=O)N(CC(=O)Nc2ccc(S(N)(=O)=O)cc2)C1=O (stereo unspecified)	-10.5	-2.3	-0.4	0.691	4.7	x	i
N#Cc1ccc(COC(=O)CSc2nnc(C3CCCCC3)n2N)cc1	x	-0.1	-2.3	0.713	1.4	-4.7%	x
COc1ccc(/C=C/C(=O)OCC(=O)Nc2cc3oc4ccccc4c3cc2OC)cc1	1.7	x	1.7	0.643	-23.7	-6.0%	i
CCN(CC)S(=O)(=O)c1cc(C(=O)OCC(=O)Nc2ccc(-c3nc4ccc(C)cc4s3)cc2)ccc1F	x	0.2	-1.3	0.702	-87.5	-40.7%	x
Nc1ccc2c(c1)COC2=O	0.3	-0.4	0.5	0.657	0.9	x	i
O=C(O)CC1(CC(=O)Nc2ccc(F)c(Cl)c2)CCCCC1	-7.3	2.7	0.4	0.65	1.8	-15.9%	i
O=C(OCC(=O)N1CCCCCC1)c1cccs1	x	1.8	4.9	0.717	0.8	-1.9%	x
C/C(=N\OCC(=O)Nc1ccc(Br)cc1)c1cccs1	0.6	0.3	-1.2	x	x	x	i
Cc1cccc(N(C(=O)c2snc(C(N)=O)c2N)C(C(=O)NCC2CCCO2)c2ccc(N(C)C)cc2)c1 (stereo unspecified)	-0.1	3.2	-0.6	0.719	-1.8	x	i
CCCCc1cc(=O)oc2cc(O)ccc12	-1.8	1.0	4.3	0.696	i	12.7%	i
c1ccc(Cn2nnc(CNc3ccccc3)c2-c2c(CNc3ccccc3)nnn2Cc2ccccc2)cc1	x	6.6	-5.3	x	0.7	x	x
Cc1nc2sccn2c(=O)c1S(=O)(=O)Nc1ccc(N2CCOCC2)c(Cl)c1	5.5	-3.8	-0.1	0.77	1.3	x	i
O=C1Nc2ccc(Br)cc2C1=C1CCCCC1	3.1	4.6	-2.0	0.621	3.0	-8.1%	i
CCOc1cccc(CNn2cnnc2)c1OCc1ccccc1	x	-2.1	-2.2	0.623	-0.3	18.8%	x
COc1ccccc1CCC(=O)Nc1ccc(OC)c(S(=O)(=O)N2CCOCC2)c1	1.0	-2.3	x	0.659	0.4	15.4%	i
O=C(Nc1ccccn1)C(c1ccccc1)c1ccccc1	-0.4	2.2	x	x	x	x	i
CCOC(=O)c1c(CC(C)C)csc1NC(=O)COC(=O)c1ccc(O)cc1	2.7	-2.9	x	0.641	-3.2	-4.4%	i
COc1cccc(CC(=O)OCC(=O)NC2(C#N)CCCC2)c1	-12.7	-0.2	x	0.63	0.4	-0.5%	i
CCOC(=O)c1c(C)c(C(=O)NC2CCCCCC2)c(C)n1C	x	3.3	x	0.754	-1.4	19.7%	x
Cc1ccc(S(=O)(=O)N[C@@H](C)C(=O)OCC(=O)N2c3ccccc3NC(=O)C2(C)C)cc1	-0.2	5.4	x	0.692	1.3	0.7%	i
O=C(COC(=O)CCNS(=O)(=O)c1ccc2c(c1)OCCO2)NC1CCCc2ccccc21 (stereo unspecified)	x	3.2	4.7	0.678	3.5	2.2%	x
O=C(CSc1nc(C(F)(F)F)cc(=O)[nH]1)Nc1cccc2ccccc12	-7.1	-1.4	0.1	0.663	0.5	-1.5%	i
Cc1cc(OCc2cc(C(=O)NC(C)c3cnn(C)c3)no2)cc(C)c1Cl (stereo unspecified)	1.8	2.9	x	x	x	-4.7%	i
CCOCCCNC(=O)c1cn(C)c2ccc(S(=O)(=O)N3CCCC3)cc2c1=O	-1.1	-2.5	0.5	0.674	5.7	4.5%	i
COC(=O)c1ccc(NC(=O)NC2CCCCC2)cc1	-6.5	-1.3	7.5	0.725	3.0	x	i
COc1ccc(-n2c(C)cc(C(=O)COc3ccc(-n4cnnn4)cc3)c2C)cc1	x	-2.6	0.7	0.761	-1.4	-0.4%	x
Cc1ccc(C(=O)NCC(=O)OCC(=O)N(CC(C)C)c2c(N)n(Cc3ccccc3)c(=O)[nH]c2=O)cc1C	2.7	3.1	-2.9	0.653	1.9	5.9%	i
O=C(COC(=O)CNC(=O)c1cccs1)Nc1ccccc1C(F)(F)F	-1.2	1.6	3.2	0.639	-1.2	24.4%	i
CCC(C)N1C(=S)SC(C)(C)C1N(O)C(=O)NC1CCCCC1 (stereo unspecified)	-1.0	1.3	4.7	0.666	2.0	-2.7%	i
Cc1c(NC(=O)c2nn(CC(C)C)c(=O)c3ccccc23)c(=O)n(-c2ccccc2)n1C	5.1	-3.5	x	0.696	1.0	0.0%	i
CC(C)Cn1c(SCC(=O)O)nnc1-c1cccc(S(=O)(=O)N2CCOCC2)c1	1.8	-1.2	x	0.697	5.0	x	i
C/C(CC(=O)Nc1cc(C)ccn1)=N\NC(=O)c1ccccc1C	-1.7	-4.2	3.3	x	x	u	i
CC1=CC=CC2=NC(=O)CC(C)(C(=O)O)N12 (stereo unspecified)	-6.7	1.2	7.4	0.697	-358.8	x	i
Cc1nc(N)ncc1C(=O)Nc1ccccc1	-6.7	-0.9	-2.9	0.7	0.7	x	i
CCOC(=O)Cn1c(=O)oc2cc(S(=O)(=O)N3CCN(C(=O)c4ccco4)CC3)ccc21	2.0	-0.7	1.0	0.728	6.0	5.2%	i
COc1ccc(NC(=O)CN(C)C(=O)CCSc2ccc(C)cc2)cc1	-2.5	-0.8	-1.5	0.629	-0.2	6.2%	i
Cc1cccc(NNC(N)=S)c1	2.5	0.3	-2.6	0.722	0.6	-5.0%	i
CCOc1ncccc1C(=O)N(C)CC(=O)Nc1ccc(F)cc1	-1.6	-0.3	7.6	0.628	-1.5	x	i
O=C(Nc1ccc(Cl)c(Cl)c1)Nn1cnnc1	2.8	-6.8	4.2	x	x	x	i
COc1ccc(C2=C(CC(=O)O)C(=O)CC2)cc1	x	1.0	-1.2	0.695	-19.4	u	x
Cc1cccc(N2CCN(C(=O)c3ccc(CS(=O)Cc4cccc(Cl)c4)o3)CC2)c1C (stereo unspecified)	-3.3	6.0	0.4	0.706	-0.5	x	i
CCOc1ccc(CNC(=O)C2CCCN(S(=O)(=O)N3CC(C)CC(C)C3)C2)cc1OC (stereo unspecified)	0.3	1.8	0.6	0.66	5.4	-5.1%	i
CS(=O)(=O)c1ccc(Cl)c(NC(=O)CCCc2nc3ccccc3c(=O)[nH]2)c1	-1.5	0.4	2.8	0.683	0.6	-11.2%	i
Cn1cc([N+](=O)[O-])c(C(=O)NCc2ccccc2)n1	1.2	3.8	2.8	0.624	2.2	x	i

The last two records of the section before are carried over, then new ones follow.
SMILES	AF4-AF9 inh	HNF4A DNA FP	RanGTP-Imp inh	Ecoli growth	UCH37 inh	Vif TR-FRET	FGF22 binding
CS(=O)(=O)c1ccc(Cl)c(NC(=O)CCCc2nc3ccccc3c(=O)[nH]2)c1	-1.5	0.4	2.8	0.683	0.6	-11.2%	i
Cn1cc([N+](=O)[O-])c(C(=O)NCc2ccccc2)n1	1.2	3.8	2.8	0.624	2.2	x	i
Cc1ccc(S(=O)(=O)Nc2c(C)nc3nc(C)[nH]n3c2=O)c(C)c1	-18.8	-0.2	u	0.705	-0.3	x	i
COc1cccc(CNC(=O)CCC2CCCN(C(=O)c3ccccc3N(C)C)C2)c1 (stereo unspecified)	-1.3	-1.8	3.9	0.71	-3.5	x	i
COc1ccc(C(=O)CSc2nnc(NC(=O)C3CC(=O)N(c4ccccc4C)C3)s2)cc1 (stereo unspecified)	x	-2.5	1.6	0.739	1.6	x	x
O=C(CN1C(=O)NC2(CCCCC2)C1=O)NCC(=O)Nc1ccc(F)c(F)c1	-1.4	-1.6	-1.1	0.636	4.0	1.4%	x
Cc1cccc(NC(=O)NNC(=O)c2cc3occc3[nH]2)c1C	-0.1	-0.6	6.8	0.706	2.6	1.6%	i
Cc1cc(=O)[nH]c(-c2ccc(C(F)(F)F)cc2)n1	-1.6	1.7	-1.2	0.671	0.4	-6.8%	i
O=C(NCCCN1CCN(c2cccc(Cl)c2)CC1)C1(S(=O)(=O)c2ccc(Cl)cc2)CC1	x	-1.1	-1.9	0.712	3.4	-3.7%	x
CCOC(=O)C1CCN(c2ncnc3c2cnn3-c2ccc(OC)cc2)CC1	x	-3.2	x	0.664	0.9	u	x
COc1ccc(C(=O)C(Sc2nnc(C)c(=O)[nH]2)c2ccc(OC)cc2)cc1 (stereo unspecified)	-53.0	-2.4	6.9	0.696	5.1	15.8%	i
CCCC(=O)N=C1SC2CS(=O)(=O)CC2N1c1ccc(CC)cc1 (stereo unspecified)	x	-1.8	5.4	0.768	-6.6	-0.8%	x
CCOC(=O)C1=NNC(C(=O)c2ccccc2)C1c1ccc(Cl)cc1 (stereo unspecified)	2.4	-3.0	-2.2	0.654	-0.4	1.7%	i

An excerpt; rates above refer to the full screens.
